# Assay outcomes as filed in PubChem BioAssay.
# NPYLR7 agonist = mosquito NPYLR7 agonism; HEK293T NPYLR7/Galpha15, GCaMP6s calcium fluorescence; activation, % at 10 µM; 0.15% of 270,000 active; AID 1259423; in the data active = activation above about 40%;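 note: 0% = vehicle and 100% = reference agonist at the receptor; some compounds past the cut are filed as inactive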
# NPYLR7 agonist max-min = also measured in NPYLR7 agonist; calls as there; activation, %; measured here: Max-Min RFU normalised activation; some inactives read as strong as hits;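 span of the calcium signal over five minutes; 0% = vehicle and 100% = native peptide agonist; compound fluorescence can raise it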
# The depositor's hits bear a star. This is a subset, so the mix of outcomes need not match the whole.
SMILES | NPYLR7 agonist max-min | NPYLR7 agonist
Cc1ccc(CN2CCC(Cn3cc(CO)nn3)CC2)o1 | -5 | 0
CC(=O)c1ccc(F)c(-c2cc(C)cc3c2OC(CNC(=O)[C@@H]2C[C@@H]4C=C[C@H]2C4)C3)c1 (stereo partly drawn) | 6 | 22
CCCCN(C)[C@@H]1[C@@H](OC)C[C@@H]2C[C@H](c3ccccn3)OC[C@@]21O | 11 | 3
COc1cccc(-c2nc(OC(C)C)nn2-c2ccc(NC(=O)C(C)C)cc2)c1 | 25 | 16
Cc1ccc(-c2cc(C(F)(F)F)n3nc(C(=O)NCCCn4ccnc4)cc3n2)cc1 | 3 | 0
O=C(NCc1ccco1)c1coc(CN(Cc2ccc(F)cc2)Cc2ccccc2Cl)n1 | 9 | -1
C/C(=C\c1ccccc1)CN1CCCN(C(=O)c2ccco2)CC1 | 17 | 23
CCC1(c2ccc(OC)cc2)NC(=O)N(CN(C)Cc2ccc(C(F)(F)F)cc2)C1=O (stereo not drawn) | 3 | 1
CCN(C)C(=O)C1=COC2=NC(=O)N(Cc3ccc(S(C)(=O)=O)cc3)CCN12 | 3 | 1
O=C(COc1ccc(Cl)cc1)N=Nc1c(O)n(CN2CCCCC2)c2ccccc12 | -16 | -9
O=C(Nc1cccc2ccccc12)N[C@H]1CO[C@H]2[C@@H]1OC[C@@H]2n1nnnc1-c1ccc2c(c1)OCO2 | -8 | -3
O=C(NC(C(=O)NC1CC1)C1CCN(C(=O)c2cccc(F)c2)CC1)c1ccc2c(c1)OCO2 (stereo not drawn) | 14 | 12
O=C(c1cc(-c2ccccc2Cl)nn1-c1ccc(Cl)c(Cl)c1)N1CCN(c2ccccc2F)CC1 | -1 | 0
COc1ccc(OC)c(S(=O)(=O)Nc2ccc(-c3ccc(N4CCCCCC4)nn3)cc2)c1 | 5 | 8
COc1cc(N2CCN(C)CC2)ccc1Nc1nccc(-c2cn(C)c3cnccc23)n1 | -11 | -1
Cc1ccc(C(=O)O)cc1NC1CC(=O)N(Cc2ccccc2)C1=O (stereo not drawn) | -4 | -3
COCc1cc(N2CCOCC2)nc(SCc2ccc(C(=O)O)cc2)n1 | 13 | 3
COc1ccccc1-c1c(C#N)c(N)nc2c1CN(Cc1ccccc1)CC2 | 3 | 3
Cc1ccccc1C(=O)N1CCN(c2ccc(F)cc2)C(=O)C1C (stereo not drawn) | -4 | -4
Cc1cc(C)n(-c2ccccc2NS(=O)(=O)c2cc(Cl)sc2Cl)n1 | -4 | -1
Cc1cc(Br)c(NC(=O)Cn2nc(-c3ccco3)oc2=O)c(Br)c1 | 4 | 3
CC(C)Cn1cncc1CNC(=O)c1cc2n(n1)CCN(C)C2 | 0 | 16
O=C1NC(=Nc2ccccc2Cl)S/C1=C/c1ccccc1Br | -9 | -8
Cc1ccc(C(C)C)c(OS(=O)(=O)c2cn(C)c(=O)n(C)c2=O)c1 | -3 | -1
CC(C)(C)c1ccc(S(=O)(=O)N2CCN(C(=O)c3ccc(-c4nnco4)cc3)CC2)cc1 | 6 | 1
Cc1cc(C(=O)CSc2n[nH]c(C3CC3)n2)c(C)n1-c1ccccc1 | 21 | 1
Cc1cc2ncn(Cc3ccc(C(C)C)cc3)c2cc1C | 7 | 2
Cc1c(C(=O)NCCS(=O)(=O)Cc2ccccc2)oc2c(F)cccc12 | 4 | 5
CC1CCCCC1NC(=O)C(C)N(C)Cc1cnn(C)c1 (stereo not drawn) | -1 | 0
COc1ccccc1OCC(=O)N=Nc1c(O)[nH]c2ccc([N+](=O)[O-])cc12 | 3 | 6
CC1Sc2ccc(S(C)(=O)=O)cc2N(Cc2cccc(C#N)c2)C1=O (stereo not drawn) | 4 | 6
CC(=O)Oc1c(-c2ccc(NC(=O)C3CCCC3)cc2)c(C(C)C)nn1-c1ccc(C)cc1 | 2 | -1
COc1ccc(CCn2c(C)c3c(=O)n(-c4nc5ccccc5s4)[nH]c3cc2=O)cc1 | -14 | -10
N#Cc1cccc(C(=O)N2C3CCC(O)(CC3)C2CN2CCOCC2)c1 (stereo not drawn) | 28 | 17
Cc1ccc2nc(-c3ccccc3)cc(C(=O)NCCN3CCOCC3)c2c1 | 7 | 5
CCN(CC(=O)Nc1cc(C(C)(C)C)nn1-c1ccc(Cl)cc1)C(=O)Nc1ccc(C)c(Cl)c1 | 6 | -3
O=C(CCN1C(=O)c2ccc(Br)cc2C1=O)NC1CCCCNC1=O (stereo not drawn) | 2 | 4
Cc1nc(C(C)C)ncc1C(=O)N(C)CCc1scnc1C | -13 | -8
COc1ccc(C2c3cc(OC)c(OC)cc3CCN2C(=O)c2ccccc2OC)cc1OC (stereo not drawn) | 0 | 14
Cc1ccc(-n2nc(C(=O)NCc3ccco3)c(=O)n(Cc3cccc(Cl)c3)c2=O)cc1F | 7 | -1
Cc1cccc(/C=C2/SC(=Nc3ccccc3)NC2=O)c1 | -15 | -6
CC(=O)Oc1ccc2c(=O)c(-c3ccc4c(c3)OCCO4)c(C)oc2c1OC(C)=O | -3 | -1
Cc1ccc(-c2nc(N)sc2-c2ccccc2)cc1 | 0 | -2
Nc1n[nH]c(C(=O)N2CC3C[C@@H]4CC2C[C@H](C3)C4)n1 | -8 | -1
CCOC(=O)c1ccc(N=c2scc(-c3ccc(-c4ccccc4)cc3)n2CCc2ccncc2)cc1 | -10 | -8
CC(C)N1CCn2nc(C(=O)NCc3nnc(-c4ccccc4)o3)cc2C1 | -8 | -7
Cn1nnnc1SCc1cn2cccnc2n1 | 0 | -2
Cc1ccc(C(C)NC(=O)Cc2c(C)nn(C)c2C)o1 (stereo not drawn) | -4 | -1
CCCCNC(=O)NNC(=O)C12CC3CC(CC(C3)C1)C2 | -2 | -2
CCN(CC)S(=O)(=O)c1ccc(N2CCCC2)c(NC(=S)NCC2CCCO2)c1 (stereo not drawn) | 10 | 3
COc1ccc(Cl)cc1S(=O)(=O)N(C)C | -3 | -3
COc1ccc2c(C)nc(N3CCCC(C(=O)NCc4ccccc4)C3)nc2c1 (stereo not drawn) | 4 | 17
COc1ccc(NC(=O)CCCc2nc(C(C)C)no2)cc1N1CCCC1=O | 2 | 3
COc1ccc(-c2cnc(-c3ccc(CNC(=O)C(C)Oc4ccccc4)cc3)[nH]2)cc1 (stereo not drawn) | 0 | 1
O=C(NC1CCN(c2ccccc2C(=O)N2CCCC2)CC1)c1ccc(C(F)(F)F)cc1 | 3 | -2
COCC(=O)N1CCC(C(NC(=O)c2ccccc2F)C(=O)N2CCCCC2)CC1 (stereo not drawn) | -2 | -2
COc1ccc(-c2cn3c(C)c(C(=O)NC4CCCCCC4)sc3n2)cc1 | 12 | 20
CCC(=O)Nc1cccc(C(=O)N2CCN(C)Cc3ccccc32)c1 | -4 | -1
CSc1ccc(C(=O)CCC(=O)NCCCN(C)c2ccccc2)cc1 | -15 | -8
CC(C)N(Cc1c(-c2ccccc2)noc1N1CCOCC1)C(=O)Nc1cccc(Cl)c1 | -2 | -2

# Next part.
SMILES | NPYLR7 agonist max-min | NPYLR7 agonist
CC1CN(C(=O)CNc2cccc(OC3CCCC3)c2)CC(C)O1 (stereo not drawn) | -2 | -2
Cc1nn(-c2ccccc2)c(N)c1Sc1ccccc1Br | 0 | 2
COC(=O)c1c(NC(=O)CN2CCNC(=O)C2)sc2c1CCC(C)C2 (stereo not drawn) | 1 | 8
O=C(C(O)c1ccc(Cl)cc1)N1CCC(O)(CO)CC1 (stereo not drawn) | 1 | 3
CCOc1ccc(N=C(Nc2ccc(OCC)cc2)SC)cc1 | 17 | 25
Cc1nnc2c3nnc(C)n3c3cc(Cl)ccc3n12 | 7 | 12
COCc1ncc(-c2nccn2-c2ccc(-c3ccn[nH]3)cc2)cn1 | 1 | 3
COc1ccc(NC2CCCN(c3nccc(C)n3)C2)cc1OC (stereo not drawn) | 2 | 2
Cc1ccc2[nH]cc(-c3nccc(C(F)(F)F)n3)c2c1 | -5 | -1
CCOCCCn1c(SCc2ccccc2I)nc2cc(C(=O)OCC)ccc21 | -9 | -8
CCN(CC)Cc1ccccc1CNC(=O)C1CCN(C(=O)c2cccs2)CC1 | 8 | 6
Cc1nnc(-c2cc3ccccc3n2Cc2ccccn2)o1 | -3 | -4
Cc1nn(CN2CCN(S(=O)(=O)c3ccccc3F)CC2)c(=O)c2ccccc12 | 13 | 8
O=C(c1ccc(CSc2nc(Cl)cc(N3CCC(Cc4ccccc4)CC3)n2)cc1)N1CCN(C/C=C/c2ccccc2)CC1 | 1 | -3
COc1ccc(CCN(Cc2sccc2C)C(=O)CN(CCN2CCCC2)S(=O)(=O)c2ccc(Br)cc2)cc1OC | -2 | 0
CCOc1cc(C)ccc1S(=O)(=O)NCc1ccc2c(c1)OCO2 | -14 | -11
Cc1cc(C)c(NC(=O)CN2C(=O)NC(C)(c3ccc(Cl)cc3Cl)C2=O)c(Cl)c1 (stereo not drawn) | -13 | -6
C=C1c2ccccc2C(=O)N1C(C)C(=O)NC(C)c1ccc(-c2ccccc2)cc1 (stereo not drawn) | 5 | 5
C[C@@H](C(=O)N1Cc2cnc(C(C)(C)C)nc2C1)n1cnnn1 | 3 | 1
Fc1cccc2sc(NCCCn3ccnc3)nc12 | -6 | -3
CC(C)(C)Nc1c(-c2ccc(Cl)cc2)nc2ccc(Br)cn12 | 15 | 1
Cc1nc(SCc2ccccc2)[nH]c(=O)c1CC(=O)N1CCN(c2ncccn2)CC1 | -11 | -3
CC(=O)Oc1ccc(C)cc1N1C(=O)c2cccc([N+](=O)[O-])c2C1=O | -1 | 0
COCCCN(CC(=O)N1CCc2sccc2C1c1ccc(Cl)cc1Cl)C(=O)Cc1cccs1 (stereo not drawn) | 24 | 30
O=S1(=O)N=C(CC2CCCCC2)Nc2ccccc21 | -2 | -1
CCOc1ccc(-n2nnnc2CNC(=O)NCc2ccccc2)cc1 | 10 | 18
Cc1ccccc1C1=NOC(CN(Cc2cccc(F)c2)C(=O)C2CCCC2)C1 (stereo not drawn) | 9 | -1
COCCCNC(=O)CC(c1ccc(Cl)c(C(F)(F)F)c1)c1c[nH]c2ccccc12 (stereo not drawn) | 13 | 5
CCC(C)C(NC(=O)c1ccc2c(c1)OCO2)C(=O)Nc1nnc(-c2ccc(Br)cc2)s1 (stereo not drawn) | -6 | -6
COC(=O)c1ccccc1CN(Cc1cccn1Cc1ccccc1C)C1CCCCC1 | 13 | 4

# Next part, overlapping the part above by 3 compounds.
SMILES | NPYLR7 agonist max-min | NPYLR7 agonist
COCCCNC(=O)CC(c1ccc(Cl)c(C(F)(F)F)c1)c1c[nH]c2ccccc12 (stereo not drawn) | 13 | 5
CCC(C)C(NC(=O)c1ccc2c(c1)OCO2)C(=O)Nc1nnc(-c2ccc(Br)cc2)s1 (stereo not drawn) | -6 | -6
COC(=O)c1ccccc1CN(Cc1cccn1Cc1ccccc1C)C1CCCCC1 | 13 | 4
COc1ccc2c(c1)C=C(CN1CCCC(N3CCN(c4ccccc4)CC3)C1)CO2 (stereo not drawn) | -4 | -1
Nc1c(C(=O)CSc2nnc(NCC3CCCO3)s2)c(=O)[nH]c(=O)n1C1CC1 (stereo not drawn) | -4 | -3
O=C1/C(=C/N2CCC3(CC2)OCCO3)Oc2cc(O)ccc21 | -11 | -6
CNC(=O)c1ccsc1NC(=O)c1cc(C)on1 | 1 | 6
Cc1nnc(SCCC(=O)N(Cc2sccc2C)C2CCCC2)s1 | 8 | 23
COc1ccc(CCNC(=O)c2cccnc2N2CCN(C(=O)c3sccc3C)CC2)cc1OC | -17 | -1
CCN(CCOc1ccccc1)C(=O)c1onc2ccccc12 | 3 | 12
O=C(N1CCC(CO)CC1)N(Cc1ccc(Br)cc1)c1ccc(F)cc1F | 1 | 1
O=C(OC(COCCC12CC3CC(CC(C3)C1)C2)CN1CCOCC1)c1ccccc1Cl (stereo not drawn) | -3 | -1
COc1ccc(S(=O)(=O)N2CCNCC2)cc1 | 5 | 4
COc1cccc(C(=O)Nc2nnc(-c3ccncc3)s2)c1 | -11 | -5
OC(COc1ccc(Cl)cc1)CSc1nncn1-c1ccccc1 (stereo not drawn) | -9 | -11
O=C(Cc1csc(NC(=O)c2ccco2)n1)NC(c1ccc(F)cc1)c1cccs1 (stereo not drawn) | 9 | 6
CC(C)(C)OC(=O)NC1CCN(C(=O)c2cc3cccnc3n(-c3ccc(F)cc3)c2=O)C1 (stereo not drawn) | -13 | -7
COc1ccc(Cn2c(C)cc(O)c(C(c3cccc(Cl)c3)N3CCN(C)CC3)c2=O)cc1 (stereo not drawn) | 3 | 9

# Part of the list above in order of length of the SMILES, rising:
SMILES | NPYLR7 agonist max-min | NPYLR7 agonist
O=C1/C(=C/N2CCC3(CC2)OCCO3)Oc2cc(O)ccc21 | -11 | -6
O=C(Cc1csc(NC(=O)c2ccco2)n1)NC(c1ccc(F)cc1)c1cccs1 (stereo not drawn) | 9 | 6
Nc1c(C(=O)CSc2nnc(NCC3CCCO3)s2)c(=O)[nH]c(=O)n1C1CC1 (stereo not drawn) | -4 | -3
CC(C)(C)OC(=O)NC1CCN(C(=O)c2cc3cccnc3n(-c3ccc(F)cc3)c2=O)C1 (stereo not drawn) | -13 | -7

# (list continues)
SMILES | NPYLR7 agonist max-min | NPYLR7 agonist
C=CCn1c(=S)[nH]c2scc(-c3ccco3)c2c1=O | 7 | 10
CCOC(=O)c1sc(NC(=O)c2ccccc2C)nc1-c1ccccc1 | -9 | -4
Cc1onc(-c2ccccc2Cl)c1C(=O)Nc1cccc2nonc12 | -5 | 13
CNc1cc(C(=O)N2CCC3(CCCN(CCC4CCCCC4)C3)C2)ccn1 (stereo not drawn) | 1 | 5
COc1cc(C)ccc1Oc1cnn(C)c(=O)c1Nc1cccc(C(=O)N2CCCC2)c1 | 14 | 8
CCOc1ccccc1C1NC(=O)NC(C)=C1C(=O)OCc1ccco1 (stereo not drawn) | -3 | -4
Cc1ccc(Cc2nnc(Nc3cccc(C)c3C)[nH]c2=O)cc1 | 5 | 11
Cc1cc(O)c(C(c2cccc(Br)c2)c2c(O)cc(C)n(C)c2=O)c(=O)n1C | 7 | 5
CNc1ccc2ncc(-c3ccc(F)cc3)n2n1 | -5 | -5
Cc1ccccc1Cn1cnc2c(cnn2CCNC(=O)c2cccs2)c1=O | -10 | -5
CNCc1cc(-c2ccccc2CO)ccc1OC | 4 | 8
